Bioassay records as filed in PubChem.
Ecoli rRNA inh: inhibitors of bacterial rRNA selective over humanized ribosomes; GFP signal change (wild-type ribosome), % (no concentration beside the values); actives 1.6% (n = 350,000); E. coli WT GFP vs humanized-ribosome RFP mutants, fluorescence, 24 h; stronger effect = lower value; DMSO median 0, no signal -100;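 active means significant combined selectivity score with lowered wild-type GFP, culture density cut under 30%, mutant RFP and density less affected; inactive means any of these conditions unmet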; further: one replicate is shown; some compounds called inactive have numbers as strong as hits
AF4-AF9 inh: inhibitors of human MLL-AF4/AF9 interaction | AID 651704 | actives 0.47% (n = 350,000) | inhibition, % at 10 µM | AlphaScreen, biotin-AF4 peptide binding to FLAG-AF9;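 active means every replicate reaching a set inhibition limit, whatever the replicate mean, cut at about 25% in these data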;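 further: 0% = plate neutral control median and 100% = total signal loss; the record names both 10 and 1 µM as test concentration; the first replicate is given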
Target sequence (P42568 whole entry, looked up): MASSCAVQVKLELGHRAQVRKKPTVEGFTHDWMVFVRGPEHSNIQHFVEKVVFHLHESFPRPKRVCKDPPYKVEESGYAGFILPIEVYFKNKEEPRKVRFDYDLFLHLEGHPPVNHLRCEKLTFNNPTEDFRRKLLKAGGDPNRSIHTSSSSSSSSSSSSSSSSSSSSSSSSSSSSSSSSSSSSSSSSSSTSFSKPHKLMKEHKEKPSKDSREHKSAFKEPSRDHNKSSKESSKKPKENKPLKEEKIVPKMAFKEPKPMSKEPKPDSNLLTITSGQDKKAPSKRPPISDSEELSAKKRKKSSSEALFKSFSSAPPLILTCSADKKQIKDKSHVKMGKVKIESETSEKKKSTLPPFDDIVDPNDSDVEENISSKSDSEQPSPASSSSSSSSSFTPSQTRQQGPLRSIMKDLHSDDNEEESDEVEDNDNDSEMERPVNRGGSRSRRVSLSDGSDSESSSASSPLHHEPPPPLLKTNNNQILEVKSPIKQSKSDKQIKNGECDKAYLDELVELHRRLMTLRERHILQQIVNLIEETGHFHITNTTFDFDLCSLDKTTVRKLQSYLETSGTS
FGF22 binding: FGF22 (human) thermal shift binding. Q9HCT0. recombinant FGF22 thermal shift, SYPRO orange fluorescence; percent of sucrose octasulfate shift, DMSO zero. calls only at 9.99 µM. actives 1.5% (n = 340,000). AID 651658;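 active means melting point raised past a set limit in the mean and every replicate; three in four hits are not shown here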
Target sequence (Q9HCT0 whole entry, looked up): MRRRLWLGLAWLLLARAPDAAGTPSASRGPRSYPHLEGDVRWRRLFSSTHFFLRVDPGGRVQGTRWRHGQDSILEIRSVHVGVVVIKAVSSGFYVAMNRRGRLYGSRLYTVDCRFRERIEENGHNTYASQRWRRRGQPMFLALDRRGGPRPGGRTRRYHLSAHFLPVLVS
Ecoli rRNA inh OD600: also measured in Ecoli rRNA inh; calls as there; OD600 change, %; measured here: OD600 growth;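 optical density of the mix in the first replicate; 0 = DMSO median and -100 = no signal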
Ecoli rRNA inh RFP: second read-out of Ecoli rRNA inh, no call of its own (marks repeat the call); RFP signal change, %; measured here: RFP humanized mutant strains;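 first replicate; 0 = DMSO median and -100 = no signal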
* = called active by the depositor; i = inactive; + = active, no number.

Ecoli rRNA inh | Ecoli rRNA inh OD600 | Ecoli rRNA inh RFP | AF4-AF9 inh | FGF22 binding | SMILES
3 | 13 | -2.1 | -0.6 | i | C[C@@H]1CN([C@H](C)CO)C(=O)c2cc(NC(=O)c3ccncc3)ccc2O[C@H]1CN(C)Cc1ccccc1
-5 | -16 | -0.6 | 5.2 | i | Cc1ccccc1S(=O)(=O)N[C@@H]1CC[C@@H](CCn2cc(Cc3ccccc3)nn2)O[C@@H]1CO
1 | -2 | -1.2 | -2.0 | i | Cc1ccc(NC(=O)C[C@H]2CC[C@H]3[C@@H](COc4ccc(NS(C)(=O)=O)cc4C(=O)N3C)O2)cc1
11 | 5 | 0.0 | -8.5 | i | CC(C)(C)c1ccc(C(=O)N2CCC(=O)N([C@H](COCc3ccccc3)Cc3ccccc3)CC2)cc1
0 | -1 | -0.6 | 0.8 | i | CC(C)NC(=O)N1[C@@H]2CN(C(=O)Nc3ccc(F)cc3)c3ccccc3[C@@H]2[C@@H]1CO
4 | 10 | -2.7 | 0.8 | i | C[C@H](CO)N1C[C@H](C)[C@@H](CN(C)C(=O)Nc2ccc(F)cc2)Oc2ccc(NS(=O)(=O)c3ccc(Cl)cc3)cc2C1=O
9 | 18 | 1.3 | -0.3 | i | Cc1ccccc1C(=O)N1CCC1(C)C(=O)NC(C)C (centres undefined)
2 | 10 | 0.0 | -1.6 | i | C[C@H]1CN([C@@H](C)CO)C(=O)c2cc(NC(=O)Nc3ccccc3)ccc2O[C@@H]1CN(C)C(=O)Nc1ccccc1
1 | 8 | 2.7 | 0.2 | i | CO[C@H]1CN(C)C(=O)c2cc(NC(=O)c3ccccc3F)ccc2OC[C@H](C)N(CC2CCOCC2)C[C@@H]1C
-2 | -4 | -1.1 | -7.0 | i | COc1ccc(NC(=O)Nc2cccc3c2O[C@@H](CN(C)C)[C@H](C)CN([C@H](C)CO)C3=O)cc1
-13 | -30 | 13 | 15 | i | C[C@H]1CN([C@@H](C)CO)S(=O)(=O)c2ccc(C3=CCCCC3)cc2O[C@H]1CN(C)Cc1ccccc1
-6 | -28 | -5.8 | 0.3 | i | COc1cccc(CNC(=O)c2ccc(CS(=O)Cc3ccccc3Cl)o2)c1 (centres undefined)
-4 | -9 | -0.7 | -3.2 | i | CC(O)(c1cccnc1)c1nc(-c2cccc(C#N)c2)cs1 (centres undefined)
-3 | -1 | -0.6 | -2.1 | i | COc1cccc(NC(=O)N(C)C[C@H]2Oc3ncc(C#Cc4cccnc4)cc3C(=O)N([C@@H](C)CO)C[C@@H]2C)c1
6 | 13 | -1.2 | -2.3 | i | N#C[C@H]1[C@H](c2ccccc2)[C@@H](CO)N1C(=O)c1ccc2c(c1)OCO2

6 entries already listed, ordered by SMILES length, ascending.
Ecoli rRNA inh | Ecoli rRNA inh OD600 | Ecoli rRNA inh RFP | AF4-AF9 inh | FGF22 binding | SMILES
-4 | -9 | -0.7 | -3.2 | i | CC(O)(c1cccnc1)c1nc(-c2cccc(C#N)c2)cs1 (centres undefined)
-6 | -28 | -5.8 | 0.3 | i | COc1cccc(CNC(=O)c2ccc(CS(=O)Cc3ccccc3Cl)o2)c1 (centres undefined)
0 | -1 | -0.6 | 0.8 | i | CC(C)NC(=O)N1[C@@H]2CN(C(=O)Nc3ccc(F)cc3)c3ccccc3[C@@H]2[C@@H]1CO
-5 | -16 | -0.6 | 5.2 | i | Cc1ccccc1S(=O)(=O)N[C@@H]1CC[C@@H](CCn2cc(Cc3ccccc3)nn2)O[C@@H]1CO
1 | 8 | 2.7 | 0.2 | i | CO[C@H]1CN(C)C(=O)c2cc(NC(=O)c3ccccc3F)ccc2OC[C@H](C)N(CC2CCOCC2)C[C@@H]1C
-3 | -1 | -0.6 | -2.1 | i | COc1cccc(NC(=O)N(C)C[C@H]2Oc3ncc(C#Cc4cccnc4)cc3C(=O)N([C@@H](C)CO)C[C@@H]2C)c1

(cont.)
Ecoli rRNA inh | Ecoli rRNA inh OD600 | Ecoli rRNA inh RFP | AF4-AF9 inh | FGF22 binding | SMILES
6 | 8 | 1.7 | -1.5 | i | CNC[C@@H]1Oc2ccc(NS(=O)(=O)c3ccc(C)cc3)cc2CC(=O)N([C@H](C)CO)C[C@H]1C
1 | 5 | 1.1 | -1.4 | i | CC(=O)N1[C@H](CO)[C@H](c2ccccc2)[C@H]1CN(CC(C)C)C(=O)c1ccccn1
-5 | -18 | -1.2 | 3.2 | i | CCCC#Cc1ccc2c(c1)O[C@@H](CN(C)C(=O)c1ccccn1)[C@H](C)CN([C@H](C)CO)S2(=O)=O
5 | 4 | 0.4 | 2.9 | i | C[C@@H]1CN([C@@H](C)CO)C(=O)c2cc(NS(=O)(=O)c3cn(C)cn3)ccc2O[C@@H](C)CCCCO[C@@H]1CN(C)C(=O)CCCN(C)C
1 | -1 | -2.0 | 0.0 | i | O=C([C@H]1[C@H](CO)[C@H]2Cn3c(cccc3=O)[C@@H]1N2C(=O)c1ccccc1)N1CCCCC1
12 | 16 | -0.5 | -3.2 | i | C#CC(C)OCC1CNC(=S)O1 (centres undefined)
-32 | -46 | -8.1 | 1.3 | i | Cc1ccc2nc(-c3ccc(C#N)cc3)c(Cc3ccccc3)n2c1
2 | 1 | -0.9 | -3.1 | i | COCC(=O)N1C[C@@H](C)[C@H](OC)CN(C)C(=O)c2ccc(NC(=O)C3CCC3)cc2OC[C@@H]1C
-1 | -5 | -0.5 | -2.5 | i | CCS(=O)(=O)N1[C@H](CO)[C@@H](c2ccccc2)C12CN(C(=O)C1CCCCC1)C2
0 | 1 | -0.4 | 1.7 | i | Cc1noc(C)c1S(=O)(=O)N(C)C[C@@H]1OCCCC[C@H](C)Oc2ccc(NC(=O)NC(C)C)cc2C(=O)N([C@H](C)CO)C[C@@H]1C
-4 | 2 | -3.5 | 5.8 | i | Cc1cccc(C)c1C(O)c1ncc(-c2ccccc2Cl)[nH]1 (centres undefined)
0 | 7 | -1.8 | -1.5 | i | C[C@H]1CN([C@@H](C)CO)C(=O)c2cc(-c3ccc(F)cc3)cnc2O[C@H]1CN(C)C(=O)Cc1ccccn1
-2 | -9 | -0.1 | -1.3 | i | Cc1ccc(S(=O)(=O)Nc2ccc3c(c2)C(=O)N([C@H](C)CO)C[C@@H](C)[C@H](CN(C)S(=O)(=O)c2ccc(F)cc2)OCCCC[C@@H](C)O3)cc1
4 | 21 | 2.4 | -4.1 | i | Cc1cccc(-c2ccc([C@H]3[C@H]4CN(S(=O)(=O)c5cccs5)CCCCN4[C@H]3CO)cc2)c1
-1 | -3 | -1.2 | -1.4 | i | O=S(=O)(NCC[C@H]1CC[C@@H](NS(=O)(=O)c2ccccc2Cl)[C@H](CO)O1)c1ccc(F)cc1
1 | -4 | 0.1 | -3.3 | i | C[C@@H]1CN([C@@H](C)CO)C(=O)c2cc(NC(=O)CCC(F)(F)F)ccc2O[C@H]1CN(C)S(=O)(=O)c1ccc(F)cc1
2 | 2 | 0.6 | -2.2 | i | COc1cccc(-c2ccc3c(c2)[C@H]2[C@H](CCN2S(=O)(=O)c2ccccc2OC)[C@H](CO)N3)c1
-10 | -13 | 0.7 | 4.2 | i | C[C@H]1CN([C@@H](C)CO)C(=O)c2cccc(NC(=O)c3nc4ccccc4s3)c2O[C@H]1CN(C)Cc1ccncc1
1 | 1 | -1.3 | -1.5 | i | O=C(N[C@H]1CC[C@H](CCNS(=O)(=O)c2cccc(Cl)c2)O[C@H]1CO)c1ccncc1
1 | -3 | 0.2 | 2.0 | i | O=C(C1CCCC1)N1C[C@H]2[C@@H](c3ccccc31)[C@@H](CO)N2C(=O)c1ccccc1
-8 | -17 | 4.0 | -1.0 | i | CC1=C(C(=O)N2CCOCC2)CC(CC(=O)NCCCCc2ccccc2)C(=O)N1Cc1ccc(F)cc1 (centres undefined)
-2 | -9 | -4.4 | -2.1 | i | C[C@@H]1CCCCO[C@@H](CN(C)C(=O)Nc2ccccc2)[C@@H](C)CN([C@@H](C)CO)C(=O)c2cc(NS(=O)(=O)c3ccc(F)cc3)ccc2O1
-7 | -7 | 4.7 | 0.0 | i | COc1ccc(-c2cnc3c(c2)C(=O)N([C@@H](C)CO)C[C@H](C)[C@@H](CN(C)C(=O)C2CCCCC2)O3)cc1
2 | -4 | 5.0 | -5.1 | i | CC(C)NC(=O)Nc1ccc2c(c1)CC(=O)N([C@@H](C)CO)C[C@H](C)[C@@H](CN(C)C(=O)Nc1cccc3ccccc13)O2
5 | 10 | 3.0 | -3.1 | i | CC(=O)N(C)C[C@@H]1Oc2cc(-c3ccncc3)ccc2S(=O)(=O)N([C@@H](C)CO)C[C@@H]1C
4 | 1 | -0.4 | -11 | i | CC1CCCCc2nc3c(c(=O)n21)CCCC3 (centres undefined)
-5 | -8 | 13 | 4.9 | i | C[C@H](CO)N1C[C@H](C)[C@H](CN(C)Cc2cccc3c2OCCCO3)OCc2ccccc2-c2c(n(C)c3ccccc23)C1=O
-3 | -5 | 3.6 | 2.8 | i | CO[C@@H]1CN(C)C(=O)c2ccc(NC(C)=O)cc2OC[C@@H](C)N(CCc2ccccc2)C[C@H]1C
4 | 15 | 1.1 | -3.0 | i | C[C@H](CO)N1C[C@H](C)[C@H](CN(C)Cc2ccc(C(=O)O)cc2)Oc2ccc(NS(=O)(=O)c3cccs3)cc2CC1=O
4 | 13 | -1.8 | -0.5 | i | CCOC(=O)C(=O)N(C)c1c(CC)nc2c(OCc3ccc(OC)cc3)cccn12
1 | 1 | 4.0 | 0.4 | i | Cc1cccc(-c2ccc([C@@H]3[C@H]4CN(Cc5cncnc5)CCCCN4[C@H]3CO)cc2)c1
11 | 17 | -0.4 | 0.7 | i | Cc1cccnc1C(NC(=O)C1CCN(Cc2ccc3ccccc3n2)CC1)c1ccc(Cl)cc1 (centres undefined)
1 | -2 | -4.4 | -0.9 | i | O=C(C[C@@H]1CC[C@@H](NC(=O)c2cccc(F)c2)[C@H](CO)O1)NCc1ccccc1
1 | -22 | 0.6 | -1.1 | i | CS(=O)(=O)N1CC(=O)N2[C@@H](CO)[C@@H](c3ccc(C#CCC4CCCC4)cc3)[C@@H]2C1
5 | 0 | -0.7 | -0.9 | i | CO[C@H]1CN(C)C(=O)c2ccc(NC(=O)C3CCC3)cc2OC[C@@H](C)N(CC2CCCCC2)C[C@H]1C
2 | -12 | 9.0 | 4.6 | i | COc1ccc2c3c([nH]c2c1)[C@H](CO)N(C(=O)Nc1ccc(F)cc1)CC31CN(Cc2nccs2)C1
-2 | 2 | -0.5 | -1.9 | i | C[C@@H]1CN([C@H](C)CO)C(=O)c2cccc(NS(=O)(=O)c3cccs3)c2O[C@H]1CN(C)C
2 | 9 | -2.5 | -3.9 | i | CC(=O)N(C)C[C@H]1Oc2ncc(C#CCc3ccccc3)cc2C(=O)N([C@H](C)CO)C[C@@H]1C
-48* | -38* | 0.1* | 0.8 | i | COc1ccc(C#Cc2ccc([C@@H]3[C@@H](CO)N4CCCCN(C(=O)Nc5ccc(F)cc5)C[C@H]34)cc2)cc1
4 | 6 | -2.9 | -1.2 | i | CCNC(=O)C1(C)CCCN1C(=O)c1ccc(C#N)cc1 (centres undefined)
-2 | -1 | 0.1 | -2.0 | i | O=C(C[C@@H]1C=C[C@H](NC(=O)c2ccc(F)cc2)[C@H](CO)O1)NCCc1ccccc1
0 | 3 | 0.3 | 4.2 | i | COc1ccc(S(=O)(=O)N(C)C[C@@H]2Oc3ccc(NC(=O)C4CCCCC4)cc3CC(=O)N([C@@H](C)CO)C[C@H]2C)cc1
2 | 5 | -0.8 | -1.4 | i | Cc1ccc(S(=O)(=O)N(C)C[C@H]2OCCCC[C@@H](C)Oc3ccc(NS(=O)(=O)c4c(C)noc4C)cc3C(=O)N([C@@H](C)CO)C[C@H]2C)cc1
-4 | -15 | 1.5 | -25 | + | C[C@@H]1CN([C@H](C)CO)S(=O)(=O)c2ccc(C#CC3CC3)cc2O[C@H]1CN(C)C(=O)c1ccncc1
1 | -2 | -0.2 | 0.6 | i | CCCNC(=O)C[C@@H]1C[C@H]2c3cc(NC(=O)Nc4ccc(OC)cc4)ccc3O[C@H]2[C@H](CO)O1
2 | 10 | -3.8 | 1.2 | i | C[C@@H]1CN([C@H](C)CO)C(=O)c2cc(NC(=O)CCCCCC(=O)Nc3ccccc3N)ccc2O[C@H]1CN(C)C
8 | -37 | 3.8 | -0.9 | i | N#C[C@H]1[C@H](c2ccc(-c3ccccc3F)cc2)[C@@H](CO)N1C(=O)C1CCC1
-56 | -75 | -20 | -0.6 | i | COC(=O)c1cccc(CC2(C)C(=O)Nc3ccc(OC(F)(F)F)cc32)c1 (centres undefined)
-2 | 3 | 1.9 | -11 | i | CC(C)NC(=O)N(C)C[C@@H]1OCCCC[C@@H](C)Oc2ccc(NC(=O)Nc3cccc4ccccc34)cc2C(=O)N([C@@H](C)CO)C[C@H]1C
-1 | 8 | -1.7 | -1.2 | i | C[C@H]1CN([C@@H](C)CO)C(=O)Cc2cc(NS(C)(=O)=O)ccc2O[C@@H]1CN(C)Cc1ccc(C(=O)Nc2ccccc2N)cc1
-8 | -19 | 4.8 | 7.0 | i | COCCNC(=O)C[C@@H]1C[C@H]2c3cc(NC(=O)Nc4ccc(C(F)(F)F)cc4)ccc3O[C@H]2[C@H](CO)O1
11 | 3 | -1.0 | 0.2 | i | O=C(c1ccco1)N1CCN(C2CN(C3CCCC3)S(=O)(=O)C2)CC1 (centres undefined)
-2 | 6 | -1.4 | -3.2 | i | C/C=C/c1cnc2c(c1)C(=O)N([C@@H](C)CO)C[C@H](C)[C@@H](CN(C)C(=O)c1cnccn1)O2

Not all compounds are listed. The share of hits here may be higher or lower than overall.
